# H5N1 CPE: MDCK cell protection from H5N1 avian flu. inhibition, % at 50 µM. cytopathic effect, luminescence, 72 h; hits give high values; no value below 0 was filed and about half of the inactive calls have no number; reference of the scale not given here. hit rate 0.07% among 96,000; in the data active means inhibition above about 25%
# * = called active by the depositor; i = inactive. These rows are one share of the data; rates above refer to the full screens.
SMILES,H5N1 CPE
CC(=O)c1sc2nc(=O)c(C)nn2c1C,1.5
COC(=O)c1cc2sccc2n1CC(=O)Nc1ccc(OC)c(OC)c1OC,1.3
COc1ccc(OC)c(N2C(N)=NC(N)=NC23CCCC3)c1,i
O=C(Cc1ccc(Cl)cc1)Nc1ccc2oc(-c3ccncc3)nc2c1,i
Fc1ccccc1N1CCN(c2cnc3ccccc3n2)CC1,i
CC(=O)Oc1cccc(N2C(=O)C3CC=C(Cl)CC3C2=O)c1 (stereo unspecified),i
COc1ccc(C(c2sc3ncnn3c2O)N2CCN(c3ccccc3F)CC2)cc1OC (stereo unspecified),2.3
CCOC(=O)Nc1sc2nc(C)cc(C)c2c1-n1cccc1,i
COc1ccc(C2C(C(=O)Nc3cccnc3)=C(C)Nc3nc(-c4ccco4)nn32)cc1 (stereo unspecified),1.8
O=C(COC(=O)Cn1cnc2ccccc21)NCCc1ccc(Cl)cc1,i
COc1ccc(-n2c(C)c3c(OC)cccc(=O)c3c2C)cc1,0.5
Cc1cc(-c2nnc(SCC(=O)Nc3ccccc3C(F)(F)F)o2)c(C)n1-c1ccccc1,0.3
CCC1(C)Cc2ccccc2-c2c1c(=O)n(Cc1ccccc1)c1nnnn21 (stereo unspecified),1.9
COc1ccc(CCCc2nnc(SCC(=O)Nc3ncc(C)s3)o2)cc1,i
CC(C)c1nc(SCC(=O)N2CCOCC2)c2c(=O)n(C)c(=O)n(C)c2n1,2.8
Cc1cc(-c2ccco2)n(CC(=O)NCCCc2ccccc2)n1,0.3
O=C1c2ccccc2C(=O)N1CCSc1n[nH]c(=S)s1,i
CCN(CC)S(=O)(=O)c1ccc(C(=O)Nc2ncn(Cc3ccccc3)n2)cc1,0.4
COCCn1nnnc1C(c1ccccc1)N1CCN(C)CC1 (stereo unspecified),0.9
O=Cc1c(-[n+]2ccccc2)nc([O-])n1-c1ccccc1,0.6
C=CCOC(=O)C1=C(C)OC(N)=C(C#N)C1c1ccc2c(c1)OCO2 (stereo unspecified),i
COC(=O)c1ccc(COC(=O)c2ccccn2)cc1,i
COc1cccc(N2CCN(Cc3ccc(Cl)cc3)CC2)c1,0.0
C=CCNC(=O)c1ccc(C)cc1Cl,0.2
CCNc1nc(SC)nc(N(C#N)CC(=O)OC)n1,6.4

# Remaining list, next part:
SMILES,H5N1 CPE
CS(=O)(=O)c1ccc2nc(NC(=O)C3C4C=CC(C4)C3C(=O)O)sc2c1 (stereo unspecified),0.6
O=c1[nH][nH]c2nc(C(F)(F)F)cc(C(F)(F)F)c12,0.1
COc1ccc(N2C(=O)C(CC(=O)O)S/C2=C\C(C)=O)cc1 (stereo unspecified),i
COc1ccc(Cc2nnc(SCC(=O)Nc3nc(C)cs3)o2)cc1,2.5
CCOc1ccc(OCCCCNCCN)cc1,0.4
CCOC(=O)c1cc(CC)sc1NC(=O)Cc1ccsc1,i
Cc1ccc(C)c(N2CCN(CC(=O)Nc3ccc([N+](=O)[O-])cc3C(=O)Nc3ccccc3F)CC2)c1,0.2
CCOC(=O)C1CCCN(C(=O)C(C)Oc2ccc(Cl)cc2Cl)C1 (stereo unspecified),0.4
CCOC(=O)c1c(CN2CCCCC2)n(C)c2cc(Br)c(O)cc12,0.6
COc1ccc(N2CCN(C(c3ccccc3)c3nnnn3Cc3ccc(F)cc3)CC2)cc1 (stereo unspecified),0.9
Cc1cccc(CN2CCNC2=O)c1,i
COc1ccc(CCNC(=O)CSc2nnc(-c3cccc(C)c3)o2)cc1OC,0.8
CCC(C)(C)NC(=O)C(c1ccc(C)cc1)N(CC1CCCO1)C(=O)CNC(=O)c1cccs1 (stereo unspecified),0.4
O=C(CCS(=O)(=O)Cc1ccccc1F)N1CCc2ccccc2C1,0.7
Nc1ccc2oc(-c3ccccn3)nc2c1,i
Cc1cc(-n2c(C)cc(C(=O)CSc3nnnn3-c3ccccc3)c2C)no1,i
O=C(NCCC1=CCCCC1)N[C@@H](Cc1ccccc1)C(=O)O,i
O=C(c1cccn(Cc2ccc(Cl)c(Cl)c2)c1=O)N1CCOCC1,i
Cc1onc(-c2ccccc2)c1C(=O)Nc1nc(-c2ccccc2)cs1,0.2
Cc1cccc(C)c1OCC(O)Cn1c2ccccc2c2ccccc21 (stereo unspecified),i
CC(C)CC(c1nnnn1CC1CCCO1)N1CCN(c2cccc(Cl)c2)CC1 (stereo unspecified),i
CCOc1cc(C(=O)NC(C)CC)cc(OCC)c1OCC (stereo unspecified),0.1
O=C(OCc1ccc2c(c1)OCO2)c1ccc(S(=O)(=O)N2CCCCC2)cc1,0.2
COCCn1c(C)nc2oc3ccc(Br)cc3c(=O)c2c1=O,1.2
COCCn1c(C)cc(C(=O)COC(=O)c2ccc(N3CCCC3=O)cc2)c1C,0.7

# Further records
SMILES,H5N1 CPE
COc1ccccc1-c1cc(C(=O)Nc2cc(C)nn2-c2ccccc2)no1,0.5
Cc1cc(=O)oc2cc3c(cc12)OCCO3,0.1
CC1Cc2ccccc2N1C(=O)Cn1cnc2ccccc2c1=O (stereo unspecified),i
COc1ccc(Nc2nnc(-c3ccc(N4CCOCC4)c([N+](=O)[O-])c3)c3ccccc23)cc1,1.8
Cc1ccc(C(=O)Nc2cccc(C(=O)NCc3ccccc3)c2)o1,i
COc1ccc(C(=O)NCC(c2ccc(F)cc2)N2CCOCC2)cc1S(=O)(=O)N1CCCC1 (stereo unspecified),i
O=C(CC12CC3CC(CC(C3)C1)C2)NCC(=O)N1CCCC1,i
CCOC(=O)c1sc2nc(N3CCOCC3)c3c(c2c1N)CC(C)(C)N(C)C3,i
CCOC(=O)c1c(C)c(C(=O)N2CCN(c3cccc(Cl)c3)CC2)c(C)n1C,1.8
CCN(CC)CCOC(=O)c1cccc(Br)c1,1.2
COc1ccc(CN2CCn3ncc(C(=O)Nc4ccccc4)c3C2=O)cc1,i
CCOC(=O)/C=c1\s/c(=C\c2c(OCC)ccc3ccccc23)c(=O)n1CC(=O)NCC1CCCO1 (stereo unspecified),i
CN(C)/C=C(/C(=O)c1ccc(Cl)cc1Cl)S(=O)(=O)c1ccc(Cl)cc1,0.4
Cc1ccc(Oc2ncc(CN3CCOCC3)s2)cc1,i
C=CCn1c(Cc2cccs2)nnc1SCC(=O)Nc1cc(OC)cc(OC)c1,0.4
COC(=O)c1ccc(NC(=O)c2cn(-c3cccc(C)n3)cn2)cc1,0.0
c1ccc(COc2ccc(OCCOCCn3cncn3)cc2)cc1,0.3
COc1ccccc1CNC(=O)[C@@H]1CCCN1C(=O)C1CCN(S(=O)(=O)c2ccc(C)cc2)CC1,0.9
NS(=O)(=O)c1ccc(Cc2ncc(C(F)(F)F)cc2Cl)s1,0.6
Cc1ccc(Cn2nnc3c(=O)[nH]c(C4CCN(S(=O)(=O)c5cc(C)ccc5C)CC4)nc32)cc1,6.3
NC12CCc3c(no[n+]3[O-])C1(O)CC(c1ccccc1)=[N+]2[O-] (stereo unspecified),0.0
C=CCc1ccc(OCC(O)CN2CCC(Cc3ccccc3)CC2)c(OC)c1 (stereo unspecified),i
Cc1c(C(=O)NC2CCCc3ccccc32)oc2ccccc12 (stereo unspecified),i
Cc1ccc(Cl)cc1N1CCN(C(=O)C2CCN(S(=O)(=O)c3cnc[nH]3)CC2)CC1,i
Nc1nonc1-c1nc2ccccc2n1Cc1ccccc1,0.7

# Remaining list, next part
SMILES,H5N1 CPE
O=C1C(Cl)=C(NCC2CCCO2)C(=O)N1Cc1ccccc1 (stereo unspecified),2.3
COc1ccccc1-n1c(SCC(=O)Nc2cccc(C)c2)nc2c(c1=O)SCC2,0.7
Cc1cc(CSc2ccccc2)ccc1NC(=O)c1cccc([N+](=O)[O-])c1,i
CCN(CC)c1nc2ccccc2nc1-n1nc(C)cc1C,2.3
Cc1ccc(C(C2C(=O)CC(C)(C)CC2=O)C2C(=O)CC(C)(C)CC2=O)s1,i
O=C(CN1C(=O)NC2(CCCCCC2)C1=O)NCc1ccco1,i
O=C(Cc1cccs1)N1CCCC(c2nc3c(nnn3Cc3cccc(Cl)c3)c(=O)[nH]2)C1 (stereo unspecified),1.0
COc1cc(OC)c(C2=NOC(C(=O)Nc3cc(C)nn3-c3ccccc3)C2)cc1Cl (stereo unspecified),0.7
CCC(C(=O)NCc1ccco1)N(C(=O)CNS(=O)(=O)c1ccccc1)c1ccc(OC)cc1 (stereo unspecified),2.0
COc1ccc(CCNC(=S)NC(=O)c2ccccc2)cc1OC,i
COCCNC(=O)c1ccc(C(=O)NCCOC)s1,2.1
O=C1c2ccccc2C(Nc2ccc3c(c2)OCO3)N1Cc1ccc2c(c1)OCO2 (stereo unspecified),i
CCOC(=O)c1c(NC(=O)CSc2nnnn2C)sc(CC)c1C,5.2
CCOC(=O)c1c(-c2ccccc2)csc1NC(=O)C1CCCO1 (stereo unspecified),0.9
COC(=O)c1[nH]c2ccc(Cl)cc2c1NC(=O)CCN1CCOCC1,i
COC(=O)C1=Nc2ccccc2/C1=C\c1c(O)n(-c2ccc(OC)cc2)c(=O)[nH]c1=O,i
O=C(Nc1ccon1)c1ccccc1Cl,i
COc1ccc(NC(=O)c2cccc(Cn3cc(Br)cn3)c2)cn1,0.3
CC(C)(C)NC(=O)CC(c1ccccc1)c1ccccc1O (stereo unspecified),i
O=C(CCCn1c(=S)[nH]c2cc3c(cc2c1=O)OCO3)N1CCN(c2ccc(F)cc2)CC1,i
CC12CCC(C(=O)N(CC(O)CN3CCCCC3)C1=O)C2(C)C (stereo unspecified),0.6
Cc1ccc(S(=O)(=O)N2CCN(C(=O)C3Cc4ccccc4CN3C(=O)c3ccco3)CC2)cc1 (stereo unspecified),3.1
CCN(CC)c1ncnc2sc(C(=O)N3CCN(c4ccccc4)CC3)c(C)c12,0.3
O=C(NCCC1=CCCCC1)c1ccc(F)c(S(=O)(=O)N2CCOCC2)c1,0.2
CCC1CCCCN1C(=O)CSc1nc(N)c(NC(=O)c2ccc(OC)c(OC)c2)c(=O)[nH]1 (stereo unspecified),0.5

# Following part:
SMILES,H5N1 CPE
CC(=O)c1cccc(NC(=O)c2cc(-n3cnnc3)ccc2Cl)c1,1.4
COc1cc(C(=O)O/N=C2\C=CC(=O)C(C)=C2)cc(OC)c1OC,i
C(#CCN1CCOCC1)COCCOC(c1ccccc1)c1ccccc1,i
O=C(CSc1ncccc1C(=O)O)c1ccccc1,i
CCOc1cc(C(=O)N2CCc3cc(OC)c(OC)cc3C2)ccc1OC(F)F,i
COc1ccc(C(CNC(=O)COc2ccccc2OC)N(C)C)cc1OC (stereo unspecified),i
CN1C(=O)c2cccc(NCCCCCCN3C(=O)c4ccccc4C3=O)c2C1=O,7.8
O=C(O)c1ccc(-c2ccco2)n1Cc1ccccc1,i
Cc1ccc(OCc2nnc(SCC(=O)CC(=O)Nc3ccccc3)o2)cc1,i
Cc1c(/C=N/n2cnnc2)c2ccccc2n1C,0.9
COc1ccc(CCNC(=O)C2=COCCO2)cc1,i
COc1cccc2c3c(c(=O)[nH]c12)CCC(C)(C)O3,1.3
COc1ccc(N(CC(=O)Nc2nc3ccc(C)cc3s2)S(=O)(=O)c2c(C)nn(C)c2C)cc1,i
O=C1Nc2cc(Cl)c(Cl)cc2N(O)N1c1ccc(Cl)cc1,i
CCN(C(=O)Nc1ccccc1OC)c1c(N)n(Cc2ccccc2)c(=O)[nH]c1=O,0.0
CCN(CC)c1ncn(Cc2c(Cl)cccc2Cl)c2ncnc1-2,1.9
Cc1cccc(NC(=O)CC2S/C(=N/c3nccs3)N(C)C2=O)c1 (stereo unspecified),i
c1ccc(N2CCN(c3ccccc3)C2c2cccs2)cc1,i
O=C1N(Nc2ccccc2)C(c2ccc(Br)cc2)C12CCCCC2 (stereo unspecified),0.2
O=C(C(c1ccccc1)c1ccccc1)N1CCN(Cc2ccc(Br)cc2)CC1,i
CCc1ccc(NC(=O)CCNS(=O)(=O)c2cccc3nsnc23)cc1,1.1
C[C@H]1CCCC(=O)CCC/C=C/c2cc(O)cc(O)c2C(=O)O1,0.2
CCN(CCNc1ccc([N+](=O)[O-])c2cccnc12)S(=O)(=O)c1ccc(Cl)cc1,0.2
COc1ccc(OC)c2[nH]c(=O)c(CCNS(=O)(=O)c3ccc(C)cc3)cc12,0.4
Cn1c(-c2sc3cc(C(F)(F)F)cnc3c2-c2cccnc2)n[nH]c1=S,2.1
CCOC(=O)c1cnc(NCc2ccccc2)nc1C,0.8
COc1ccc(CCNC(=O)CSc2nc(-c3ccco3)cc(C(F)(F)F)n2)cc1OC,0.6
CCC1(c2ccc(F)cc2)NC(=O)N(CC(=O)c2ccc[nH]2)C1=O (stereo unspecified),i

# Filtered by structure: the compounds so far containing fluorine.
SMILES,H5N1 CPE
Fc1ccccc1N1CCN(c2cnc3ccccc3n2)CC1,i
COc1ccc(C(c2sc3ncnn3c2O)N2CCN(c3ccccc3F)CC2)cc1OC (stereo unspecified),2.3
Cc1cc(-c2nnc(SCC(=O)Nc3ccccc3C(F)(F)F)o2)c(C)n1-c1ccccc1,0.3
O=c1[nH][nH]c2nc(C(F)(F)F)cc(C(F)(F)F)c12,0.1
Cc1ccc(C)c(N2CCN(CC(=O)Nc3ccc([N+](=O)[O-])cc3C(=O)Nc3ccccc3F)CC2)c1,0.2
COc1ccc(N2CCN(C(c3ccccc3)c3nnnn3Cc3ccc(F)cc3)CC2)cc1 (stereo unspecified),0.9
O=C(CCS(=O)(=O)Cc1ccccc1F)N1CCc2ccccc2C1,0.7
COc1ccc(C(=O)NCC(c2ccc(F)cc2)N2CCOCC2)cc1S(=O)(=O)N1CCCC1 (stereo unspecified),i
NS(=O)(=O)c1ccc(Cc2ncc(C(F)(F)F)cc2Cl)s1,0.6
O=C(CCCn1c(=S)[nH]c2cc3c(cc2c1=O)OCO3)N1CCN(c2ccc(F)cc2)CC1,i
O=C(NCCC1=CCCCC1)c1ccc(F)c(S(=O)(=O)N2CCOCC2)c1,0.2
CCOc1cc(C(=O)N2CCc3cc(OC)c(OC)cc3C2)ccc1OC(F)F,i
Cn1c(-c2sc3cc(C(F)(F)F)cnc3c2-c2cccnc2)n[nH]c1=S,2.1
COc1ccc(CCNC(=O)CSc2nc(-c3ccco3)cc(C(F)(F)F)n2)cc1OC,0.6
CCC1(c2ccc(F)cc2)NC(=O)N(CC(=O)c2ccc[nH]2)C1=O (stereo unspecified),i

# Assay outcomes: PubChem, SRMLSC
